Screening data from PubChem BioAssay.
TRPML1 blocker – blocks the human TRPML1 channel; TRPML1-inducible cells, Ca2+ dye fluorescence, FDSS; stronger effect = lower value; inhibition of EC80 agonist-evoked calcium signal; activity change, negative = inhibition, % (concentration not given with the values); 390,000 compounds, 0.02% hits; AID 624415; in the data active means activity change below about -50%; inconclusive means about -30% to -50%; inactive means above about -30%;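 also: stimulus is agonist 54-4 at its EC80 concentration; % is scaled to controls: 0 for no effect and ±100 for the full control effect; the text of the record puts the active cut at -80%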
Target sequence (Q9GZU1 whole entry, looked up): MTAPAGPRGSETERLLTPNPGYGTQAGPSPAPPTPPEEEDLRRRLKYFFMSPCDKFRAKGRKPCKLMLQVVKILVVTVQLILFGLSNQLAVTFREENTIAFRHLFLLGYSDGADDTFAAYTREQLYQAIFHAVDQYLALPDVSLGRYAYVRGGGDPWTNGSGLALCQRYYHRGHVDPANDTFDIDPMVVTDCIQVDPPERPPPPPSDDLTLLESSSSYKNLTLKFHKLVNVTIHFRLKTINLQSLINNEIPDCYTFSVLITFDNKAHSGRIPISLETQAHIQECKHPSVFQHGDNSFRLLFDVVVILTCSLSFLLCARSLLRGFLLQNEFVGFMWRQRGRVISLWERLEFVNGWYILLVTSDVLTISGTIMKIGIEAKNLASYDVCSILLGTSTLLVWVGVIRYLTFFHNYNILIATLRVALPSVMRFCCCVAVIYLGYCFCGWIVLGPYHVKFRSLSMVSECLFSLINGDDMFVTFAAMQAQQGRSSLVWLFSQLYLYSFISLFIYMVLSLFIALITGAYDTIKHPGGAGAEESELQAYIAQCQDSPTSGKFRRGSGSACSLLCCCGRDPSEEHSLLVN
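TRPML1-DL cells, Tet-induced overnight (~16 h, 37 °C) at 1,500 cells/well, were loaded with Ca8 no-wash dye plus quencher for 45-90 min at room temperature. Compounds were pinned during FDSS kinetic reading; agonist 54-4 at EC80 (4 uM final) then added.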
Menin-MLL FL inh – inhibitors of human menin-MLL interaction, wild-type MLL peptide | Fluorescence polarization, fluorescein-MLL peptide displacement from menin | FP activity change, % at 61.4 µM | 290,000 tested, under 10 active | AID 1766; inconclusive = falling polarisation curve, or a change in total fluorescence; inactive = total fluorescence flat and polarisation flat or rising; no compound was filed as active; the % refers to the polarisation; negative = inhibition;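 also: % of control where 0% means no effect; inhibitors lower the polarisation; unlabelled MLL peptide was the positive control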
TRPML1 ag – human mucolipin-1 channel agonism; 410,000 compounds, 0.12% hits; activation, % (test concentration not listed); AID 624414; TRPML1-expressing cells, Ca2+ dye fluorescence, FDSS; host cell line not named in the record; reference of the full effect not given here; Q9GZU1; in the data active = activation above about 50%; inconclusive = about 30% to 50%; inactive = below about 30%; also: 0% is about no effect; the text of the record puts the active cut at 80%
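In this qHTS format, compounds were pin-transferred onto Ca8-dye-loaded TRPML1-DL cells induced with Tet overnight, and intracellular Ca2+ fluorescence was recorded kinetically for 110 s after a 10 s baseline. A subsequent 4uM final 54-4 (EC80) addition followed by a second 110 s read served as the antagonist phase.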
gsp antagonist – gsp mutant antagonism | gsp-mutant cells, cAMP HTRF, 30 min; control for the full effect not named in the record | Potency, µM (top dose mostly 76.9 µM), for the others: at the highest dose activity change, negative = inhibition, hits mostly inhibitors | AID 624288 | 340,000 compounds, 0.4% hits; active = falling curve of any shape with a large fitted effect; inconclusive = falling curve, mostly with a smaller effect; inactive = flat or rising curve; cell line not stated here;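 also: intracellular cAMP measured with PDE inhibitor Ro 20-1724 present during compound exposure; potency is read from the fitted curve at half-maximal effect; % is scaled to controls: 0 for no effect and ±100 for the full control effect; nearly all actives have a fitted effect of over 65% in size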
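G418-selected cells were plated in DMEM/10% FBS for 16-24 h at 37C, then treated with compounds plus the PDE inhibitor […] (300 uM solution added) for 30 min at 37C. Intracellular cAMP was measured by HTRF after 30 min lysis at room temperature.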
gsp agonist – activates gsp, the McCune-Albright syndrome mutation; gsp mutant cells, cAMP HTRF, 30 min; control for the full effect not named in the record; AID 624287; Potency, µM (highest dose often 76.9 µM), without a hit: at the highest dose activation (cAMP increase), actives largely listed as activators; 340,000 compounds, 0.13% hits; active = well fitted activation curve with a large enough effect; inconclusive = small, poorly fitted or top-dose-only effect, or another doubt; inactive = no such curve, though single readings can be large or run the other way; cell line not stated here;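 also: phosphodiesterase inhibitor Ro 20-1724 added with compounds to block cAMP breakdown; potency is read from the fitted curve at half-maximal effect; nearly all actives have a fitted effect of over 60% in size; about a fifth of the inactives were tested at one dose only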
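Cells stably selected in G418 were plated at 2000/well, grown 16-24 hr, then given compounds in DMSO with the PDE inhibitor […] (300 uM solution added) for 30 min at 37C; cAMP was read by HTRF.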
ClpP mod – qHTS Assay for Activators of ClpP. purified B. subtilis ClpP, FRET peptide cleavage, 20 min. ATP-dependent Clp protease proteolytic subunit (Bacillus subtilis (strain 168)), P80244. Potency, µM (titrated, usually from 57.5 µM), inactives show top-dose activity change, negative = active. 340,000 compounds, 1.9% hits; active = well fitted falling curve with a large enough effect; inconclusive = small, poorly fitted or top-dose-only effect; inactive = no such curve, though single readings can be large or run the other way; also: potency is read from the fitted curve at half-maximal effect; the source files actives as falling curves though it sought activators and does not explain the sign; nearly all actives have a fitted effect of over 65% in size; many hits overshoot -100%
Target sequence (P80244 whole entry, looked up): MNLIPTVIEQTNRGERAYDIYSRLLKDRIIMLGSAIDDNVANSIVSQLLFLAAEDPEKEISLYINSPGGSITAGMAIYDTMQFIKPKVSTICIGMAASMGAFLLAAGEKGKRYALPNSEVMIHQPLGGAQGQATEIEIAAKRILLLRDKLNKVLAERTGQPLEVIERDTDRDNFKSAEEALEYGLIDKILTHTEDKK
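Buffer: 100 mM Tris/HCl pH8, 100 mM KCl, 0.05% low protease BSA, 2.5% glycerol, 0.01% Tween-20. ClpP 10 microg/mL final; 20 min RT; delta FRET normalized to ADEP and DMSO controls.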
Active calls of the source: *; ? = inconclusive; / = not tested or not shown; & = joins results of further samples; [ ] = dose if it differs, or a comment.

SMILES	TRPML1 blocker	Menin-MLL FL inh	TRPML1 ag	gsp antagonist	gsp agonist	ClpP mod
CCOc1ccc(NC(=O)c2nn(C)c3c2CS(=O)(=O)c2ccccc2-3)cc1	14	/	-0.8	/	/	?
Cc1ccccc1Oc1ccc(NC(=O)C2CC=CCC2C(=O)O)cc1 (stereo not drawn)	11	6.2	0.5	7%	-15%	-0.8%
Cc1cc(=O)[nH]c2sc(C(=O)N3c4ccccc4CC3C)c(N)c12 (stereo not drawn)	22	/	1.3	-29%	-4%[15.4 µM]	0.2%
COc1cc(NC(=O)CSc2nc3ncccc3o2)cc(OC)c1	0	/	1.5	/	/	2.7%
COc1ccc(N2CCN(C(=O)Cn3nnc(-c4cccs4)n3)CC2)cc1	-13	1.4	-0.3	15%	21%	11%
CCN(/C=N/S(=O)(=O)c1ccc(Cl)cc1)CC	3	-4.2	-0.3	11%	0%[15.4 µM]	/
CC(=O)N1C[C@H]2CON(C)[C@H]2C[C@H]1c1cccc(-c2cc(Cl)cc(Cl)c2)c1	1	/	-0.3	/	-16%	-0.1%
COc1ccc(Br)c(C(=O)N(C)CC(=O)Nc2ccc(N3CCOCC3)cc2)c1	-21	/	0.2	-12%	1%	-1.0%
O=C(C1CCCN(C2CC(=O)N(c3ccc(F)cc3)C2=O)C1)N1CCCC1 (stereo not drawn)	-7	/	-0.3	11%	-5%[15.4 µM]	-7.6%
CC(=O)Nc1cc2c(cc1[N+](=O)[O-])OCCO2	10	0.6	0.1	/	-3%[15.4 µM]	/
Cc1ccc(NCC(=O)N=Nc2c(O)[nH]c3ccc([N+](=O)[O-])cc23)cc1	-9	4.7	2.6	-9%	-29%[15.4 µM]	/
CC1(C)N(OCc2ccccc2)C(=O)C(=O)N(OCc2ccccc2)C1(C)C	-16	0.6	2.2	8%	-65%[inhibitor]	-1.7%
CCN1CCN(CCCNC(=O)C2CCN(c3nnc(-n4c(C)ccc4C)s3)CC2)CC1	17	-1.5	-0.1	-6%	10%	1.9%
CCC(CO)[n+]1c(C)cc(/C=C2\Sc3ccccc3N2Cc2ccccc2)cc1C (stereo not drawn)	-18	?	20	-20%	27%	-0.6%
Cc1cc(N2CCN(C)CC2)nc2ccc(NC(=S)NC3CC3)cc12	7	-2.0	0.3	2%	12%	?
COc1ccc(OC)c(Nc2cc(C)nc3ccccc23)c1	-8	0.3	-0.2	0%	25%	-1.2%
CN(CCOc1ccccc1)S(=O)(=O)c1ccccc1C#N	-2	/	0.0	-12%	-49%[inhibitor]	-2.1%
CCCn1c(=O)c(C(=O)Nc2cccc(C)n2)c(O)c2ccccc21	1	2.4	-0.1	12%	-35%	/
CCCN1CCN(CCCNC(=O)Cn2nc(C)n3c(cc4c(OC)cccc43)c2=O)CC1	-15	/	-0.1	/	/	4.5µM*
COc1cccc(-c2nnc(SCC(=O)N3CCCCC3)o2)c1	25	/	0.1	/	/	0.0%
CS(=O)(=O)c1ccc2nc(NC(NC(=O)c3ccco3)(C(F)(F)F)C(F)(F)F)sc2c1	4	-0.3	0.2	-7%	?	-1.9%
Cc1ccccc1CNCCSc1nnnn1-c1ccccc1	9	/	0.3	/	/	-1.3%
Cc1cc(=O)oc(C)c1C(=O)Nc1c(C)n(C)n(-c2ccccc2)c1=O	1	3.5	2.2	8%	2%	-6.5%
CCCC(=O)Oc1ccc(N(C(=O)CCC)S(=O)(=O)c2cccs2)cc1	13	-2.0	2.9	-11%	18%[15.4 µM]	/
COC(=O)c1cc(NC(=O)c2cnc(SC)nc2-c2ccccc2)cc(C(=O)OC)c1	7	/	-0.4	/	/	-11%
Cc1ccc(S(=O)(=O)N2CCN(C(=O)CSc3cc(C)ccc3C)CC2)c(C)c1	-9	/	0.0	-11%	-1%	-2.0%
CC(=O)NC(C)c1nc2ccccc2n1CC(=O)N1C(C)CCCC1C (stereo not drawn)	-15	-2.3	0.0	9%	6%[15.4 µM]	/
COc1ccc(/C=N/NC(=O)c2ccc(CSc3nncn3C)cc2)cc1OC	20	-2.7	-0.4	14%	3%	/
COc1ccccc1C(=O)NC(=O)COC(=O)c1nc(Cl)ccc1Cl	16	/	0.6	3%	2%[15.4 µM]	-15%
Cc1cc(C)n(S(=O)(=O)c2ccc(C)c(C)c2C)n1	-10	0.2	1.0	?	0%	-1.6%
COc1ccc(NC(c2ccccc2)c2ccncc2)cc1 (stereo not drawn)	11	-2.2	0.5	6%	12%	-1.4%
COC(=O)CSc1nc2sc3c(c2c(=O)n1-c1ccc(C)cc1)CC(C(C)C)OC3 (stereo not drawn)	-8	/	0.9	/	/	-3.1%
COc1nc(NS(=O)(=O)c2ccc(C)cc2)nc(C)c1Cl	-14	4.6	1.1	-8%	-23%	-1.5%
COCCN(CCOC)c1cc(C)c(C#N)c2nc3ccccc3n12	5	7.4	-0.9	3%	18%	?
CCc1ccc(/C=N/NC(=O)c2cc(C3CC3)nc3ccc(Br)cc23)s1	-9	-4.3	0.1	10%	7%	0.6%
CCOC(=O)c1c(C)[nH]c(C(=O)COC(=O)c2ccc(O)cc2O)c1C	-15	16	1.4	-1%	29%	-3.0%
Cc1onc(C(=O)NC2CCCCC2)c1[N+](=O)[O-]	17	/	1.0	0%	-16%	-0.8%
C=CCn1c(O)c(CN2CCN(Cc3ccccc3)CC2)c(C)c(C#N)c1=O	15	?	1.8	-2%	3%	-3.3%
O=C1COc2ccc(C(=O)COC(=O)CNC(=O)C3CCCCC3)cc2N1	-1	-1.6	0.2	-4%	0%[15.4 µM]	/
COc1ccc(CN2C(=O)c3cccnc3C2=O)cc1S(=O)(=O)N1CC(C)Oc2ccccc21 (stereo not drawn)	19	/	0.3	12%	?	0.9%
Cc1ccc(NC(=O)Nc2cc(Cl)ccc2C2COC(=O)C2=N)cc1 (stereo not drawn)	-1	-0.9	3.6	7%	15%	-3.7%
O=C(Cc1ccccc1)N/N=C/c1cccs1	6	2.3	5.8	3%	5%	-1.1%
CC(=O)N(CC(=O)O)c1ccccc1C(=O)O	-8	2.4	-0.2	7%	-2%	-2.4%
O=C(O)C#Cc1cccc2ccccc12	10	0.3	-0.6	-2%	18%	/
CC1Oc2ccccc2N(CC(=O)NCCN2CCOCC2)C1=O (stereo not drawn)	-18	-2.5	1.4	8%	?	-2.4%

The list goes on; the last 2 above are carried over.
SMILES	TRPML1 blocker	Menin-MLL FL inh	TRPML1 ag	gsp antagonist	gsp agonist	ClpP mod
O=C(O)C#Cc1cccc2ccccc12	10	0.3	-0.6	-2%	18%	/
CC1Oc2ccccc2N(CC(=O)NCCN2CCOCC2)C1=O (stereo not drawn)	-18	-2.5	1.4	8%	?	-2.4%
O=C(NCCCn1ccnc1)c1noc2c1CCCC2	1	1.5	0.9	13%	15%	0.7%
Cc1ccc(C(=O)c2cc3ccccc3o2)cc1[N+](=O)[O-]	13	0.7	0.2	0%	3%	/
COc1ccc(N(CC(=O)Nc2ccc3c(c2)OCO3)S(=O)(=O)c2c(C)nn(C)c2C)cc1	1	-0.8	-0.1	-14%	-40%	-0.6%
COC(=O)c1sccc1NC(=O)CSCC(=O)O	16	1.1	-0.7	6%	14%	/
Cc1ccc(C(=O)N2CCNC(=O)C2CC(=O)Nc2ccc(F)cc2)cc1C (stereo not drawn)	1	/	-0.2	2%	5%[15.4 µM]	/
O=C1/C(=C\c2ccccn2)SC(=S)N1Nc1ncc(C(F)(F)F)cc1Cl	-3	0.4	0.7	-12%	1%	0.7%
CCCCC1CCC(C(=O)N(CCOC)c2c(N)n(CC(C)C)c(=O)[nH]c2=O)CC1 (stereo not drawn)	-7	/	0.4	10%	8%	-2.1%
COc1ccc2cc(CCNC(=O)c3ccco3)c(=O)[nH]c2c1	-10	-10	-0.6	-6%	-7%	?
CCn1c(CCC(N)=O)nnc1SCC(=O)Nc1cccc(S(=O)(=O)N2CCCC2)c1	-1	/	-0.6	8%	-9%	-0.6%
CCOC(=O)C1(Cc2ccccc2)CCN(Cc2csc(C(C)=O)c2)CC1	35	2.4	-0.8	-4%	-15%[15.4 µM]	/
COc1ccc(F)cc1C(=O)C1CCCN(Cc2ccc3c(c2)OCCO3)C1 (stereo not drawn)	51	6.1	-0.3	2%	-22%	-11%
CSCCC(NC(=O)c1ccc(Cl)cc1)C(=O)OCC(=O)N1CCCC1=O (stereo not drawn)	15	/	-0.4	3%	-7%[15.4 µM]	-0.5%
COc1cc2c(cc1NC(=O)c1cncc(Br)c1)oc1ccccc12	6	0.4	-1.0	7%	29%	0.6%
CCN1C(=O)C(CC(=O)Nc2cccc(C(C)=O)c2)S/C1=N\c1ccccn1 (stereo not drawn)	-15	2.4	-0.9	-6%	15%	-4.8%
Cc1ccc(S(=O)(=O)N2CCN(c3nc(C)c4c(c3C#N)CC(C)(C)OC4)CC2)cc1	-3	-1.4	19	5%	-8%	28µM*
CCN(C(=O)CSc1nccn1C)c1cccc2ccccc12	2	/	0.1	-5%	36%	-1.5%
O=C(c1ccc2nc(Cc3cccc(Cl)c3)oc2c1)N1CCC(O)CC1	9	-0.2	0.2	0%	16%	-0.4%
CCN1CCSc2ccc(C(=O)NCc3cccc(Br)c3)cc21	8&-10	-8.0	0.1&1.0	?	15%	4.3%&4.0%
CCC(C)N(C(=O)COC(=O)c1nc(Cl)ccc1Cl)C1CCS(=O)(=O)C1 (stereo not drawn)	2	/	0.1	-3%	-14%[15.4 µM]	0.7%
CC(NCc1cccc(OCc2ccccc2)c1)C(O)c1ccccc1 (stereo not drawn)	-2	0.4	0.4	9%	-15%	-1.4%
COc1ccccc1N1CCN(C(=O)c2ccc(CS(=O)(=O)c3ccccc3OC)o2)CC1	-8	3.7	0.4	0%	-10%	-4.2%
CC(Sc1ccc(S(=O)(=O)N2CCOCC2)cn1)C(=O)Nc1ccc(Cl)cc1Cl (stereo not drawn)	11	/	-0.2	-6%	30%	2.5%
Cc1c(C(=O)Nc2cccc([N+](=O)[O-])c2)sc2ncn(CC(=O)N3CCOCC3)c(=O)c12	-5	0.9	-0.6	-13%	-1%	-3.4%
CNC(=O)c1ccc(NC(=O)CC2SC(N3CCCC3)=NC2=O)cc1 (stereo not drawn)	5	/	-1.2	11%	-18%	-0.2%
CCOC(=O)c1sc(NC(=O)CSc2nc3c(cc2C#N)CCCCC3)c(C#N)c1C	-11	18	8.9	-8%	0%	-0.8%
CC(=O)c1ccc(NC(=O)C2CCC(CNS(=O)(=O)c3cccc4nsnc34)CC2)cc1 (stereo not drawn)	-14	/	-0.2	/	/	0.9%
CC(C)OC(=O)c1c(-c2ccccc2)c(-c2ccccc2)nn(C)c1=O	?	/	3.2	/	/	0.9%
